KCNQ2 block = KCNQ2 potassium channel inhibitors, primary screen, cell-based, CHO-K1, FluxOR thallium flux, B-score (AID 2156). O88943. 20 min; stronger effect = lower value; only compounds with negative scores are shown here; some inactives read as strong as hits. B-score at 10 µM. actives 1.1% (n = 310,000);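 active = fluorescence ratio B-score at most minus 3 library SDs, with starting brightness B-score within 2 library SDs, cut at about -5.5 in these data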
Target sequence (O88943 whole entry, looked up): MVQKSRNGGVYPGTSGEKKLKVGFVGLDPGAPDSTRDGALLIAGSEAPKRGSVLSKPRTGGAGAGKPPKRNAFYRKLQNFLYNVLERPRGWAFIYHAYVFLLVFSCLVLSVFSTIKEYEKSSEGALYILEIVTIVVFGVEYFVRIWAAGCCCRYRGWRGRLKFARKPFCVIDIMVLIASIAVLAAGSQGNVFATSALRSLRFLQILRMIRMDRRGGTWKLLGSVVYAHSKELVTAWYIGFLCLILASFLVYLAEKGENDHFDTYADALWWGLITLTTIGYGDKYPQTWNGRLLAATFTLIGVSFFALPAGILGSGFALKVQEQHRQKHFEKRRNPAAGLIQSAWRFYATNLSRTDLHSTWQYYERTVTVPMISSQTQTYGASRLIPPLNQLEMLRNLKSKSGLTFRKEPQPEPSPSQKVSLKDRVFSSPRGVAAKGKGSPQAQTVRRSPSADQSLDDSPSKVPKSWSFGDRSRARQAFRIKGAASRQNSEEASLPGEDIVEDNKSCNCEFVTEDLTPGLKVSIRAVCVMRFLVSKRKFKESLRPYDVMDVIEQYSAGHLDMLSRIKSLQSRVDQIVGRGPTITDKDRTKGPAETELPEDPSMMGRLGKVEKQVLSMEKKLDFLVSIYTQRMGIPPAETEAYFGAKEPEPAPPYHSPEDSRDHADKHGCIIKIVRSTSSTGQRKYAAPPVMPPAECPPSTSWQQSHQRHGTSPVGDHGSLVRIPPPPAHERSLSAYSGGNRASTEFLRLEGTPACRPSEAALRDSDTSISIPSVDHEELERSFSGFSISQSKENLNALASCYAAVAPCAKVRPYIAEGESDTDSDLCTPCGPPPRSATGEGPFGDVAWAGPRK
KCNQ2 block baseline = recorded beside KCNQ2 block, whose call it bears; B-score; measured here: initial fluorescence intensity artifact check;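 brightness before thallium and not channel activity; 0 = typical well and far values either way flag optical interference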
The depositor's hits bear a star; i = inactive; & = joins results of further samples.

SMILES	KCNQ2 block	KCNQ2 block baseline
CCN(CC)C(=O)c1ccc(NC(=O)c2ccc(-n3cncn3)c([N+](=O)[O-])c2)cc1	i	-0.12
CCN(CC)CCCOC(=O)C(OC)(c1ccccc1)c1ccccc1	i	-0.66
CCC(=NCc1ccco1)c1c(O)n(-c2ccc(Cl)cc2)c(=O)[nH]c1=O	i	-1.23
CC(=O)O[C@H]1C(=O)[C@@]2(C)C([C@H](OC(=O)c3ccccc3)[C@]3(O)C[C@H](OC(=O)[C@H](O)[C@@H](NC(=O)Cc4ccccc4)c4ccccc4)C(C)=C1C3(C)C)[C@]1(OC(C)=O)CO[C@@H]1C[C@@H]2O (stereo not given in full)	i	0.03
C(#CCN1CCOCC1)COCc1ccccc1	i	0.57
CN1CCc2nc3ccc(F)cc3c(C(N)=O)c2C1	i	-0.1
CN1CCN(c2ccc([N+](=O)[O-])c3no[n+]([O-])c23)CC1	i	9.24
CN1CCC2(CC1)C(C#N)=C(N)NC(S)=C2C#N	i	-0.25&4.17
O=C(NC(C(Cl)Cl)N1CCOCC1)c1ccccc1 (stereo not given)	i	0.19
CN1OC[C@@H]2COc3ccc4ccccc4c3[C@@H]21	i	1.34
Cc1cccc(N=Cc2c(O)n(-c3ccccc3C)c(=O)[nH]c2=O)c1	i	-2.71
CC(C)n1c(O)c(C=NCc2cccnc2)c(=O)[nH]c1=S	i	-0.23
COc1ccc(-c2nc(CSCC(=O)N3CCC4(CC3)OCCO4)c(C)o2)cc1OC	i	1.15
Cc1nc2ccccc2c(=O)n1-c1ccc(Br)cn1	i	0.11
CC(=O)O[C@@]12CO[C@@H]1C[C@H](O)[C@@]1(C)C(=O)[C@H](O)C3=C(C)[C@@H](OC(=O)[C@H](O)[C@@H](NC(=O)c4ccccc4)c4ccccc4)C[C@@](O)([C@@H](OC(=O)c4ccccc4)C12)C3(C)C (stereo not given in full)	i	2.24
CN1CC(C(=O)c2cccs2)C(c2ccc(Cl)cc2)C1 (stereo not given)	i	-1.74
O=c1[nH]c(O)c(C=Nc2ccccc2Sc2ccccc2)c(=O)[nH]1	i	-1
Cn1c(O)c(/C=C2\C=Nc3ccc(Br)cc32)c(=O)n(C)c1=O	i	3.13
CN(C)c1ccc(C=C(C#N)C#N)cc1	i	0.17
COC(=O)C1=C(c2ccccc2)C[C@@H]2CC[C@H]1N2C(=O)NCCNC(C)=O	i	-0.35
Cc1c(C(c2ccc(Cl)cc2Cl)c2c(O)c3ccccc3oc2=O)c(=O)n(-c2ccccc2)n1C (stereo not given)	i	-0.42
CN(C)C(=O)On1c(-c2ccccc2)nc2ccc(Cl)cc21	i	0.2
Cc1ccc(C(=O)C2(C)N(O)C(C)C(c3cccs3)=[N+]2[O-])cc1 (stereo not given)	i	1.87
Cc1cc(C=O)c(C)n1C1CCCCC1	i	-0.15
CCCCC12CNCC(C)(CNC1)C2=O	i	0.84
COc1ccccc1CN1CCN(C(=O)Cc2ccccc2)CC1	i	-0.21
COc1ccc(CN2C(=O)NC(=O)/C(=C/c3ccoc3)C2=O)cc1	i	0.62
Cc1ccc(N2C(=O)NC(=O)/C(=C\c3cn(CC(=O)O)c4ccccc34)C2=O)cc1	i	-1.32
CCN(CC)C(=O)c1ccc(NC(=O)c2cccc(C(F)(F)F)c2)cc1	i	0.8
OC(c1cccc(Cl)c1)(c1cccc(Cl)c1)C1CN2CCC1CC2 (stereo not given)	i	0.01
O=C1NC(=S)NC(=O)C1=Cc1ccc2c(c1)CCN2CCCCl	i	-0.54
COc1ccc(C(C)=O)cc1CN1CC=C(c2ccccc2)CC1	i	0.55
Cc1cccc(OC(=O)N2CCOCC2)c1	i	3.96
O=[N+]([O-])c1ccc(C2C3C(c4ccccc4)=NC4(CCCC4)N32)cc1 (stereo not given)	i	0.59
COc1ccc(NC(c2ccccc2)P(=O)(Oc2ccccc2)Oc2ccccc2)cc1 (stereo not given)	-6.98*	0.22*
c1ccc2c(c1)[nH]c1cnccc12	i	1.94

Structures from the list above that have bromine:
SMILES	KCNQ2 block	KCNQ2 block baseline
Cc1nc2ccccc2c(=O)n1-c1ccc(Br)cn1	i	0.11
Cn1c(O)c(/C=C2\C=Nc3ccc(Br)cc32)c(=O)n(C)c1=O	i	3.13

The list continues:
SMILES	KCNQ2 block	KCNQ2 block baseline
O=P(NC(c1ccccc1)c1ccccc1)(Oc1ccccc1)Oc1ccccc1	-5.86*	2.62*
CCC(=Nc1ccc(OC)cc1OC)c1c(O)n(C)c(=O)n(C)c1=O	i	-0.65
Cc1c(C=C2C(=O)N(C)C(=O)N(C)C2=O)c(=O)n(-c2ccccc2)n1C	i	-2.3
CNC(C(=O)c1ccccc1)C(OC)c1cccc([N+](=O)[O-])c1 (stereo not given)	i	0.51
O=c1[nH]c(CN2CC=C(c3ccccc3)CC2)nc2scc(-c3ccccc3)c12	i	0.72
O=C1CC(c2cccnc2)=NN1c1ccc(Cl)cc1Cl	i	0.49
C/C(=N\N1CCCCCC1)c1c(O)n(-c2ccc(Cl)cc2)c(=O)[nH]c1=O	i	-0.55
CC(C)[C@]12O[C@H]1[C@@H]1O[C@]13[C@]1(O[C@H]1C[C@H]1C4=C(CC[C@@]13C)C(=O)OC4)[C@@H]2O	i	-1.33
COC(=O)c1cncn1C(C)c1ccccc1 (stereo not given)	i	1.79
Cc1ccc(-c2nc3ccccc3c(=O)n2-c2cccc(O)c2)cc1	i	0.02
COc1ccc(C)cc1NC(=O)N1CCC2(CC1)OCCO2	i	-0.36
O=C(CCN1C(=O)COc2ccccc21)N1CCC2(CC1)OCCO2	i	-0.02
O=c1c2ccccc2nc(/C=C/c2ccc3c(c2)OCO3)n1-c1cccc(O)c1	i	-0.89
O=C(c1ccc2c(c1)OCO2)C1CCCN(CC2CCCCC2)C1 (stereo not given)	i	1.04
Cc1cc2c(s1)NC(=O)CN=C2c1cccs1	i	0.86
O=C1/C(=C\c2ccc3c(c2)OCO3)N2CCC1CC2	i	-1.02
O=C(COc1ccccc1)N1CCN(CC2CC=CCC2)CC1 (stereo not given)	i	-0.64
O=C1NC(=O)C2(Cc3ccccc3N3CCCC32)C(=O)N1 (stereo not given)	i	0.55
c1cc(C2N3CCCN2CC3)ccn1 (stereo not given)	i	1.28
O=C(NCCO)c1nsnc1NCCCl	i	1.72
O=c1c2ccccc2nc(/C=C/c2ccc(F)cc2)n1-c1ccccc1O	i	2.04
O=C1NC(=O)C(=Cc2ccc(OCCOc3ccc([N+](=O)[O-])cc3)cc2)C(=O)N1	i	-0.43
CCOc1ccc([N+](=O)[O-])cc1CNCCc1ccccc1	i	1.94
COc1ccccc1N1C(=O)NC(=O)/C(=C\c2cnn(-c3ccccc3)c2)C1=O	i	0.32

Taken from above:
O=C1NC(=O)C2(Cc3ccccc3N3CCCC32)C(=O)N1 (stereo not given) in KCNQ2 block baseline reads 0.55
c1cc(C2N3CCCN2CC3)ccn1 (stereo not given) in KCNQ2 block baseline reads 1.28
O=c1c2ccccc2nc(/C=C/c2ccc3c(c2)OCO3)n1-c1cccc(O)c1 in KCNQ2 block baseline reads -0.89
O=C1NC(=O)C(=Cc2ccc(OCCOc3ccc([N+](=O)[O-])cc3)cc2)C(=O)N1 in KCNQ2 block baseline reads -0.43

More compounds follow.
SMILES	KCNQ2 block	KCNQ2 block baseline
C=CCC1(CN2CCCCCC2=O)C(=O)NC(=O)NC1=O	i	-1.56
CCNCC(O)c1cccc(O)c1 (stereo not given)	i	3.76
CCOP(=O)(OCC)C(O)c1ccccc1 (stereo not given)	i	-1.67
CCN1C(=O)N(CC)C(=O)C2(Cc3ccccc3N3CCN(c4ccccc4)CC32)C1=O (stereo not given)	i	0.02
N#Cc1ccc(NC(=O)CN2CCCCCC2)cc1Cl	i	0.77
O=C1COc2ccc(C(=O)COC(=O)Cc3ccccc3)cc2N1	i	1.77
CC#CP(=O)(OC)C(O)(CF)c1ccccc1 (stereo not given)	i	-0.27
CN(C)c1ccc(/C=C/[N+](=O)[O-])cc1	i	5.73
CCN1C[C@]2(COC)CC[C@H](OC)[C@@]34C5C[C@H]6C(=O)C5[C@](O)(C[C@H]6OC)[C@@](O)(C(OC)C23)[C@@H]14 (stereo not given in full)	i	0.49
CC1=NN(c2ccccc2)C(=O)/C1=C/c1c(O)[nH]c(=S)[nH]c1=O	i	0.68
COc1ccccc1N1CCN(Cc2ccc(Br)cc2)CC1	i	-0.28
Oc1cc2c(cc1O)[C@H]1c3ccccc3CN[C@@H]1CC2	i	-0.2
Cc1cccc(NC(=O)[C@@H](NC(=O)N2C[C@H]3C[C@@H](C2)c2cccc(=O)n2C3)C(C)C)c1	i	0.2
COc1ccc(NC(=O)c2cn(CCC#N)nc2-c2ccc([N+](=O)[O-])cc2)cc1	i	1.18
CNCCc1ccc(OC)c(OC)c1	i	-0.01
COc1ccccc1-n1c(/C=C/c2ccc(O)cc2)nc2ccccc2c1=O	i	-0.9
COc1ccc(NP(=O)(Nc2ccc(OC)cc2)Oc2ccccc2)cc1	i	0.69
Cc1cc(C)nc(NS(=O)(=O)c2ccc(N=Cc3c(O)n(C)c(=O)n(C)c3=O)cc2)n1	i	0.36
CCOC(=O)C1(c2ccccc2)CCN(Cc2cccc(C(=O)O)c2)CC1	i	0.08
CN1Cc2cccnc2N(C)Cc2cc(Cl)ccc21	i	-0.29
Clc1ccc(CCNCc2ccncc2)c(Cl)c1	i	-0.17
O=C(O)Cn1cc(C=C2C(=O)NC(=O)NC2=O)c2ccccc21	i	2.67
COc1ccc(C(C)=O)cc1CC(C(=O)c1ccc(F)cc1)N(C)C (stereo not given)	i	-0.32
COC(=O)C(O)(c1ccc(N(C)S(=O)(=O)c2ccccc2)cc1)C(F)(F)F (stereo not given)	i	0.4
CCOc1ccccc1N1C(=O)NC(=O)C(CCc2ccncc2)(CCc2ccncc2)C1=O	i	4.68
O=C1NC(=O)[C@]2(Cc3ccccc3N3CCN(c4ccccc4)CC32)C(=O)N1c1ccccc1 (stereo not given in full)	-6.06*	0.28*
N#CSCC(=O)N1c2ccccc2CCc2ccccc21	i	-1.69
Cc1ccc(C2N(c3ccccn3)C(=O)C3CCCN32)o1 (stereo not given)	i	0.04
CC1CCCN(C(=O)c2ccc(N3CC4CC(C3)c3cccc(=O)n3C4)c([N+](=O)[O-])c2)C1 (stereo not given)	i	0.07
CCOC(=O)c1c(-n2c(C)cc(C=C3C(=O)NC(=O)NC3=O)c2C)sc2c1CCCC2	i	1.94
O=C1NC(=O)N(c2ccccc2)C(=O)/C1=C\c1ccc([N+](=O)[O-])s1	i	-0.03
NC1C2CN3CCN(C2)CC1(c1ccccc1)C3 (stereo not given)	i	0.32
OC(CNC1CCCCCCC1)c1ccccc1 (stereo not given)	i	-0.64
Clc1ccc(N2CC2c2ccncc2)cc1 (stereo not given)	i	-0.68
O=c1c2ccccc2nc(SCC2CCCCO2)n1-c1ccccc1 (stereo not given)	i	-0.15
CCN1CCN(C(=O)COc2cc(=O)n(CC)c3ccccc23)CC1	i	-0.08
COc1ccc(-n2c(/C=C/c3ccc4c(c3)OCO4)nc3ccccc3c2=O)cc1	i	0.23
O=C1NC(=O)N(c2ccc3c(c2)OCO3)C(=O)/C1=C/c1ccsc1	i	-0.41
O=C(c1cc(F)ccc1F)C1CCCN(CCCc2ccccc2)C1 (stereo not given)	i	-1.13
Cc1ccc(-c2nc3ccccc3c(=O)n2-c2cccc(C)n2)cc1	i	-2.5
CCCCCCn1c(O)c(C=Nc2c(C)n(C)n(-c3ccccc3)c2=O)c(=O)[nH]c1=O	i	1.36
CCC(=NCCc1ccccc1)c1c(O)n(C2CCCCC2)c(=O)[nH]c1=O	i	1.43
CC[C@H]1CC2CN3CCc4c([nH]c5ccccc45)C(C(=O)OC)(C2)C13 (stereo not given in full)	i	-1.99
COC(=O)N(c1ccccc1)P1(=S)OCCO1	i	3.14
CN1CCCC(C(O)(c2ccccc2)c2ccccc2)C1 (stereo not given)	i	0.07
CCOC(=O)c1c(C)n(CC(O)CN2CCOCC2)c2cc(Br)c(OC)cc12 (stereo not given)	i	-0.6
Cc1ccc(N2C(=O)NC(=O)/C(=C\c3ccc(N4CCOCC4)cc3)C2=O)cc1	i	0.7
Cc1ccsc1C(=O)C1CCCN(Cc2cnn(C(C)C)c2)C1 (stereo not given)	i	1.11
O=[N+]([O-])c1cccc(CN2CCN(Cc3ccc(Cl)cc3)CC2)c1	i	0.3
COc1ccc(Cl)cc1C(=O)C1CCCN(CCO)C1 (stereo not given)	i	-1.11
COc1c(C=C2C(=O)NC(=O)NC2=O)c(CCN(C)C(=O)c2ccccc2)cc2c1OCO2	i	1.49
O=C1NC(=S)NC(=O)C1=Cc1cccn1-c1ccc(O)cc1	i	-0.05
CN1CCN(c2ccc([N+](=O)[O-])c(NCC3CCCO3)c2)CC1 (stereo not given)	i	-3.21
CCC(=O)N1CC(=O)Nc2ccc(F)cc2C1c1ccccc1 (stereo not given)	i	0.62
COc1cccc(O)c1CN1CCCC(C(=O)c2sccc2C)C1 (stereo not given)	i	0.21

3 entries already listed, arranged by heavy-atom count, low to high:
SMILES	KCNQ2 block	KCNQ2 block baseline
COc1ccc(Cl)cc1C(=O)C1CCCN(CCO)C1 (stereo not given)	i	-1.11
CN1CCN(c2ccc([N+](=O)[O-])c(NCC3CCCO3)c2)CC1 (stereo not given)	i	-3.21
COc1cccc(O)c1CN1CCCC(C(=O)c2sccc2C)C1 (stereo not given)	i	0.21

High-throughput results from PubChem.

Only part of the results is shown; count on the stated rates, not on these rows.
